TRPML1 inh: inhibitors of human TRPML1 channel; AID 624415; TRPML1-inducible cells, Ca2+ dye fluorescence, FDSS; active compounds read low; inhibition of EC80 agonist-evoked calcium signal; activity change, negative = inhibition, % (test concentration not listed); actives 0.02% (n = 390,000); Q9GZU1; in the data active means activity change below about -50%; inconclusive means about -30% to -50%; inactive means above about -30%;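 also: stimulus is agonist 54-4 at its EC80 concentration; % is scaled to controls: 0 for no effect and ±100 for the full control effect; compound concentration not given in the record; the text of the record puts the active cut at -80%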
Target sequence (Q9GZU1 whole entry, looked up): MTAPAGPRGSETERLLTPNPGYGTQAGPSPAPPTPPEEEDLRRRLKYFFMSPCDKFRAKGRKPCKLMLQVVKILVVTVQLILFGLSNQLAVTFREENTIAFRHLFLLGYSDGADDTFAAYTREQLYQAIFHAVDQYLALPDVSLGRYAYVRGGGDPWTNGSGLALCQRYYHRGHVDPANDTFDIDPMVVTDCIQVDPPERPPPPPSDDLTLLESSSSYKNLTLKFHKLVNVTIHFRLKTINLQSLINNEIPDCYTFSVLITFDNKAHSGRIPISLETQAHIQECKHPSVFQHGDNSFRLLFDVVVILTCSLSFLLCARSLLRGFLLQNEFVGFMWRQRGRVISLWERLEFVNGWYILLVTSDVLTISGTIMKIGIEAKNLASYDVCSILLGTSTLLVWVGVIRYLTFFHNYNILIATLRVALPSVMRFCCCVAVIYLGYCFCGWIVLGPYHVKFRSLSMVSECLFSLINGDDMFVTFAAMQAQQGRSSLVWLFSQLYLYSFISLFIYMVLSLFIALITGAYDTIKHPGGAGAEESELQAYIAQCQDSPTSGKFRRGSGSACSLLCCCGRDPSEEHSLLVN
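Calcium fluorescence in TRPML1-DL cells induced overnight with Tet: a 110 s read after compound pin addition, then a 110 s antagonist read after challenge with 54-4 at 4 uM final (EC80).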
gsp antagonist: antagonizes gsp, the McCune-Albright syndrome mutation. gsp-mutant cells, cAMP HTRF, 30 min; control for the full effect not named in the record. Potency, µM (series often up to 76.9 µM), for the others: top-dose activity change, negative = inhibition, most hits filed as inhibitors. actives 0.4% (n = 340,000); active = falling curve of any shape with a large fitted effect; inconclusive = falling curve, mostly with a smaller effect; inactive = flat or rising curve; cell line not stated here;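 also: intracellular cAMP measured with PDE inhibitor Ro 20-1724 present during compound exposure; potency is read from the fitted curve at half-maximal effect; % is scaled to controls: 0 for no effect and ±100 for the full control effect; nearly all actives have a fitted effect of over 65% in size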
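HTRF cAMP read-out (cAMP-d2 plus anti-cAMP antibody-K in lysis buffer, 30 min RT). Before lysis, cells are exposed to compounds with […] for 30 min at 37C in DPBS containing Ca/Mg, BSA and Tween 20.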
Sfp inh: blocks B. subtilis Sfp PPTase activity | Q9F4F7 | Biochemical Sfp PPTase activity, qHTS | Potency, µM, for the others: max response, negative = inhibition, hits mostly inhibitors | actives 3.5% (n = 310,000) | AID 1490; active = well fitted inhibition curve with a large enough effect; inconclusive = small, poorly fitted or top-dose-only effect, or another doubt; inactive = no such curve, though single readings can be large or run the other way;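 also: the enzyme is Sfp with the accession as filed and its product quenches rhodamine fluorescence; potency is read from the fitted curve at half-maximal effect; 0% = enzyme reaction without inhibitor and -100% = no enzyme wells; top concentration of the series not given in the record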
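After 15 min at room temperature with compound, 15 nM Sfp received 5 uM rhodamine-CoA plus 12.5 uM BHQ-2-ybbR (50 mM Hepes pH 7.6, 10 mM MgCl2). Rate came from the fluorescence difference over 30 min, ex 525/em 598 nm.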
TRPV1 potentiator: human TRPV1 potentiation. Q8NER1. TRPV1-expressing cells, Fluo-8 calcium influx, capsaicin EC20 potentiation; host cell line not named in the record; control for the full effect not named in the record. potentiation, % at 8.33 µM. actives 0.02% (n = 320,000); active means potentiation above 80%; inconclusive means 30% to 80%; inactive means below 30%; also: 0% is about no effect
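Cells expressing TRPV1 were dye-loaded with Fluo-8 and read kinetically: 10 s baseline, 3 min after compound (agonist portion), then 2 min after EC20 capsaicin (allosteric enhancer portion). Calcium-bound dye fluorescence at 480/520 nm.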
ClpP mod: qHTS Assay for Activators of ClpP; purified B. subtilis ClpP, FRET peptide cleavage, 20 min; Potency, µM (top dose mostly 57.5 µM), for inactives: at the top dose activity change, negative = active; actives 1.9% (n = 340,000); AID 651965, 2013; active = well fitted falling curve with a large enough effect; inconclusive = small, poorly fitted or top-dose-only effect; inactive = no such curve, though single readings can be large or run the other way; also: potency is read from the fitted curve at half-maximal effect; the source files actives as falling curves though it sought activators and does not explain the sign; nearly all actives have a fitted effect of over 65% in size; many hits overshoot -100%
Target sequence (P80244 whole entry, looked up): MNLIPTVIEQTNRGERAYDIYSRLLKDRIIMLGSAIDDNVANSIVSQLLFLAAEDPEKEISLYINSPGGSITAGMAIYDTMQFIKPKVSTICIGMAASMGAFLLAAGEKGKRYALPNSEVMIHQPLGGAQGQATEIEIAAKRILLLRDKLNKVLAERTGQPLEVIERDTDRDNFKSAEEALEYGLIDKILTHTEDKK
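FRET quenching reversal measured ClpP activation: 10 microg/mL B. subtilis ClpP at pH 8 with the FRET-FV decapeptide, read at 430 nm after 320 nm excitation. The 20-min minus 0-min signal was scaled between DMSO/no-enzyme wells and ADEP (5.8 microM final).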
Menin-MLL FL inh: menin-MLL binding inhibition, fluorescein peptide | FP activity change, % at 61.4 µM | Fluorescence polarization, fluorescein-MLL peptide displacement from menin | 290,000 tested, under 10 active; inconclusive = falling polarisation curve, or a change in total fluorescence; inactive = total fluorescence flat and polarisation flat or rising; no compound was filed as active; the % refers to the polarisation; negative = inhibition;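 also: % of control where 0% means no effect; inhibitors lower the polarisation; unlabelled MLL peptide was the positive control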
gsp agonist: gsp mutant agonism | gsp mutant cells, cAMP HTRF, 30 min; control for the full effect not named in the record | actives 0.13% (n = 340,000) | Potency, µM (top dose mostly 76.9 µM), for the others: top-dose activation (cAMP increase), actives largely listed as activators | AID 624287; active = well fitted activation curve with a large enough effect; inconclusive = small, poorly fitted or top-dose-only effect, or another doubt; inactive = no such curve, though single readings can be large or run the other way; cell line not stated here;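 also: phosphodiesterase inhibitor Ro 20-1724 added with compounds to block cAMP breakdown; potency is read from the fitted curve at half-maximal effect; nearly all actives have a fitted effect of over 60% in size; about a fifth of the inactives were tested at one dose only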
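Cells stably selected in G418 were plated at 2000/well, grown 16-24 hr, then given compounds in DMSO with the PDE inhibitor […] (300 uM solution added) for 30 min at 37C; cAMP was read by HTRF.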
An asterisk follows results filed as active; ? = inconclusive; nt = not tested or not shown; & = joins results of further samples; [ ] = dose if it differs, or a comment.

SMILES | TRPML1 inh | gsp antagonist | Sfp inh | TRPV1 potentiator | ClpP mod | Menin-MLL FL inh | gsp agonist
CCOC(=O)C1CCN(S(=O)(=O)c2ccc(-c3nc4ccccc4s3)s2)CC1 | 18 | ? | 0% | -1 | 25µM* | 6.4 | 13%
COc1ccc(NC(=O)N2CCN(c3ccc([N+](=O)[O-])cc3)CC2)cc1OC | -11 | -10% | 6% | 0 | nt | -1.7 | -43%[inhibitor]
COc1ccc(C2CC(c3ccccc3)Nc3ncnn32)cc1 (configuration not stated) | 2 | 8% | 7% | 6 | -11% | -0.4 | 5%
Cc1ccc(C(=O)N/C(=C\c2ccccc2)C(=O)NCCN2CCOCC2)cc1 | -4 | 12% | 1% | -13 | 0.6% | -7.3 | 6%[15.4 µM]
COc1cc(CNCc2ccc(OC)cc2OC)cc(OC)c1 | -11 | 6% | -19% | 6 | 0.9% | -8.9 | -2%
Cc1cc(C)cc(OC(=O)CS(=O)c2ccc(C(F)(F)F)cc2[N+](=O)[O-])c1 (configuration not stated) | 17 | 13% | 6% | 5 | -5.5% | -0.2 | -31%[inhibitor]
C=COC(=O)c1sc2nc(C)cc(C)c2c1N | -3 | 14% | 8% | -4 | -0.5% | 0.5 | 1%[15.4 µM]
CCOc1ccc(NC(=S)Nc2cc(C)[nH]n2)cc1 | -2 | -7% | 5% | 26 | nt | -0.9 | -4%[15.4 µM]
Cc1cc(=O)oc2ccc(OCC(=O)N3CCc4ccccc43)cc12 | 4 | 1% | 6% | 17 | -11% | -1.7 | -25%
COc1ccc(NC(=S)N(CCc2ccc(OC)c(OC)c2)Cc2ccccn2)cc1 | 21 | -13% | -24% | 18 | nt | 0.8 | -1%[15.4 µM]
COc1cc(/C=C/C(=O)c2ccc(C)cc2)ccc1OCC#N | 30 | 18% | -12% | ? | -2.3% | 28 | 2%
COc1ccc2nc(N=NC3=C(O)CC(C)(C)CC3=O)sc2c1 | 9 | -16% | ? | 3 | nt | -4.7 | 16%
Cc1ccc(-c2nc(-c3cccnc3)no2)c(C)c1 | 2 | -22% | -1% | 1 | -2.9% | 0.4 | 5%
CN(C)c1ccc(CNC(=O)c2cc(S(=O)(=O)N3CCCC3)cn2C)cc1 | 40 | -5% | -5% | 10 | 1.1% | 0.2 | 6%
COc1ccccc1NC(=O)c1ccc2c(c1)nnn2C | 18 | -1% | 24% | 3 | 0.4% | -1.3 | 11%
NC(=O)c1ccc(NCCc2ccccc2)c([N+](=O)[O-])c1 | -7 | -12% | -7% | 7 | 3.3% | 2.0 | -9%
O=C(c1ccc(Cl)c(Cl)c1)N1CCOCC1 | -5 | 1% | 5% | 7 | -21% | 1.3 | 20%
Cc1ccc(S(=O)(=O)N2C(=O)CCC2C(=O)O/N=C(\N)c2ccccc2)cc1 (configuration not stated) | -2 | -12% | 1% | -9 | -1.3% | -7.6 | ?
Cc1ccc(C)c(Cn2c(=O)n(CCC(=O)NCc3ccco3)c(=O)c3ccccc32)c1 | 15 | -2% | -4% | 17 | ? | 1.3 | -11%
CN(C)c1cccc(C(=O)OC(C(=O)Nc2ccc(Cl)cc2C(F)(F)F)c2ccccc2)c1 (configuration not stated) | 7 | -3% | 6% | 24 | -27% | 3.2 | -2%
COc1ccc(-c2cc(C3C4C=CCCC4(C)C(=O)N3Cc3ccccc3)ccc2F)cc1 (configuration not stated) | 60 | nt | -28% | nt | nt | -0.3 | nt
Cc1cc(C)c(C)c(S(=O)(=O)NCC(=O)Nc2ccccc2F)c1C | -9 | -2% | 6% | -5 | -0.3% | -2.1 | 24%
C/C(=N\NC1=N[C@H]2CS(=O)(=O)C[C@H]2S1)c1ccccc1 | 5 | 12% | ? | 9 | nt | 1.9 | -3%[15.4 µM]
CCN1CCN(C(=O)Nc2cc(Cl)ccc2OC)CC1 | 0 | 11% | 20% | 1 | nt | -3.3 | -2%[15.4 µM]
CSc1sc(-c2nnc(SCC(=O)Nc3ccc(Cl)cc3)n2C)c2c1C=CCC2 | -14 | -11% | 16% | -6 | 76% | 1.9 | ?

(continued)
SMILES | TRPML1 inh | gsp antagonist | Sfp inh | TRPV1 potentiator | ClpP mod | Menin-MLL FL inh | gsp agonist
Cc1ccc(-n2nc(-c3cccnc3)cc2C(=O)N2CCOCC2)c(C)c1 | 23 | 2% | -3% | 4 | -1.5% | 3.9 | -29%
CC(=O)c1cc2c(cc1NC(=O)CSc1nnc(C3CC3)n1C)OCO2 | -9 | nt | nt | nt | -29% | nt | -50%[inhibitor]
CN(C)S(=O)(=O)c1ccc(NC(=O)N2CCN(c3cccc(C(F)(F)F)c3)CC2)cc1 | 5 | ? | 0% | 22 | -3.6% | 0.5 | ?
O=C(CSc1ccc(Cl)cc1)Nc1ncccn1 | ? | 9% | -3% | 12 | -5.2% | 5.2 | 14%
Cc1ccc(C(=O)c2nc(C(=O)NCCO)nc3ccccc23)cc1 | 11 | 7% | nt | -2 | -3.6% | nt | -5%
CC(=O)N1N=C2/C(=C/c3ccccc3)CCCC2C1c1ccccc1 (configuration not stated) | 3 | ? | -19% | -12 | nt | 0.8 | 4%[15.4 µM]
O=C(c1cccc(COc2ccc(Cl)cc2Cl)c1)N1CCN(c2ccccn2)CC1 | -7 | ? | 3% | 17 | -6.8% | 1.8 | -21%
O=C(Nc1oc2ccc(Cl)cc2c(=O)c1-c1ccc(F)cc1)c1ccco1 | -7 | -14% | 14% | -5 | nt | nt | -18%
FC(F)Oc1ccc(-c2c[n+]3c(n2-c2ccccc2)CCCCC3)cc1 | -4 | -6% | 13% | -3 | -2.2% | 3.5 | ?
CCOC(=O)C1=C(COC(=O)/C=C/c2cc(OC)c(OC)c(OC)c2)NC(=O)NC1C (configuration not stated) | 27 | 11% | 2% | -2 | ? | nt | -7%
CCOC(=O)c1ccc(-n2c(C)nc3c(cnn3-c3ccccc3C)c2=O)cc1 | -10 | -16% | 9% | 24 | -0.9% | 1.7 | -16%
O=C(CC12CC3CC(CC(C3)C1)C2)Nc1nncs1 | 63 | 10% | 1% | 0 | -0.1% | 0.7 | 19%
Cn1c(NCC(O)c2ccccc2)nc2c1c(=O)n(Cc1ccc(Cl)cc1)c(=O)n2C (configuration not stated) | -3 | -12% | -2% | 14 | -14% | -0.3 | -8%
O=C(NCCN1CCOCC1)c1ccc(CSc2nc3ccncc3n2Cc2ccc(F)cc2)cc1 | 11 | 5% | -2% | -5 | -2.5% | -2.5 | -24%
COc1ccc(N(C(=O)c2snc(C(N)=O)c2N)C(C(=O)NC2CCCC2)c2ccc(F)cc2)c(OC)c1 (configuration not stated) | ? | -1% | 9% | -3 | nt | -2.2 | -44%[inhibitor]
CCN1CCN(C(=O)c2cn(CCOC)c(=O)c3c2c2ccccc2n3C)CC1 | 2 | -4% | 12% | 5 | ? | 4.5 | 3%
COc1ccc(Cl)c(NC(=O)Cn2nnc(-c3ccccc3N)n2)c1 | 27 | -17% | ? | -12 | 0.2% | -4.8 | 23%
N=C1c2ccccc2CN1NC(=O)CC12CC3CC(CC(C3)C1)C2 | -1 | -17% | -18% | -4 | -2.7% | 1.8 | -7%
COc1ccc(CCn2c(C)c(C(C)=O)c3cc(OC(=O)c4ccco4)ccc32)cc1OC | -19 | -13% | -12% | -4 | 0.5% | -0.2 | 3%
COc1cc(OC)c(NC(=O)c2ccco2)cc1Cl | 0 | -7% | ? | -6 | 1.3% | -0.7 | -2%
Cc1cc(-c2cccc(Br)c2)c(C#N)c(N)n1 | 16 | nt | 17% | -6 | nt | 1.0 | 0%[15.4 µM]
CCN(CC)C(=O)C(C)OC(=O)COc1ccc(Cl)cc1Cl (configuration not stated) | 11 | 0% | 7% | -1 | -1.5% | 1.2 | -47%[inhibitor]
CCCCCOc1ccc(C(=O)N(Cc2ccco2)C2CCS(=O)(=O)C2)cc1 (configuration not stated) | -4 | -11% | 6% | -3 | 2.8% | 1.5 | 2%
CC(C)c1ccc(S(=O)(=O)N2CCN(C(C)C(=O)N3CCCC3)CC2)cc1 (configuration not stated) | 28 | 9% | nt | 17 | -2.8% | nt | 1%
Nc1cc(C(=O)O)ccc1Nc1ccc(F)c(F)c1 | 3 | ? | 8% | 6 | ? | 0.6 | ?

(list continues)
SMILES | TRPML1 inh | gsp antagonist | Sfp inh | TRPV1 potentiator | ClpP mod | Menin-MLL FL inh | gsp agonist
O=C(CN1C(=O)S/C(=C\c2ccc(O)c([N+](=O)[O-])c2)C1=O)Nc1ccc(N2CCOCC2)cc1 | 12 | -7% | ? | -4 | 1.4% | nt | -12%
CCOc1ccc(S(=O)(=O)N2CCN(C(=S)NCc3ccco3)CC2)cc1 | 1 | -7% | 2% | -8 | ? | 2.9 | ?
Cc1ccc(CN2[C@@H](Cc3ccccc3)C(=O)CS2(=O)=O)cc1 | -1 | -1% | nt | -16 | -2.2%&-2.7% | nt | ?
C/C(=N\NC(=O)COc1ccc([N+](=O)[O-])cc1)c1ccco1 | -2 | 9% | nt | -2 | 2.0% | nt | 2%
CCCCn1nc2cc(C(=O)NCc3ccc(OC(F)(F)F)cc3)ccc2c1OC | 4 | -4% | 10% | -9 | 4.5% | 3.3 | nt
Nc1c(C(=O)N2CCCCCC2)oc2ccccc12 | 6 | -3% | 6% | 0 | 4.1% | -4.6 | -14%

5 structures from above, ordered by length of the SMILES, low to high:
SMILES | TRPML1 inh | gsp antagonist | Sfp inh | TRPV1 potentiator | ClpP mod | Menin-MLL FL inh | gsp agonist
Nc1c(C(=O)N2CCCCCC2)oc2ccccc12 | 6 | -3% | 6% | 0 | 4.1% | -4.6 | -14%
Cc1ccc(CN2[C@@H](Cc3ccccc3)C(=O)CS2(=O)=O)cc1 | -1 | -1% | nt | -16 | -2.2%&-2.7% | nt | ?
CCOc1ccc(S(=O)(=O)N2CCN(C(=S)NCc3ccco3)CC2)cc1 | 1 | -7% | 2% | -8 | ? | 2.9 | ?
CCCCn1nc2cc(C(=O)NCc3ccc(OC(F)(F)F)cc3)ccc2c1OC | 4 | -4% | 10% | -9 | 4.5% | 3.3 | nt
O=C(CN1C(=O)S/C(=C\c2ccc(O)c([N+](=O)[O-])c2)C1=O)Nc1ccc(N2CCOCC2)cc1 | 12 | -7% | ? | -4 | 1.4% | nt | -12%
